Bioassay records (PubChem)
eIF4H FP inh: human eIF4H binding inhibitors, primary screen, translation initiation inhibitor project, biochemical, uHTS, fluorescence polarization. Eukaryotic translation initiation factor 4H (Homo sapiens), Q15056. eIF4H fluorescence polarization binding assay. inhibition, % at 35 µM. 290,000 tested, 0.94% active. AID 2012, 2009;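 active means 50% or more with normal probe brightness, or confirmed in later tests; inconclusive means above 50% with abnormal brightness, or retests that disagree; inactive means below 50% or failed in later tests; about a fifth of its hits are not listed in these tables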;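 further: calls also rest on retests at 20 µM and on dose response follow-up; 0% = protein and probe with vehicle and 100% = probe without protein; strong numbers were not always called active; many hits fall short of the cut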
PABP polyA inh: PABP poly(A) RNA binding inhibitors, primary screen, biochemical, fluorescence polarization, uHTS; inhibition, % at 35 µM; 290,000 tested, 1% active; AID 2014, 2009;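 active means 50% or more with normal probe brightness, or confirmed in later tests; inconclusive means above 50% with abnormal brightness, or retests that disagree; inactive means below 50% or failed in later tests; about a fifth of its hits are not listed in these tables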;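 further: calls also rest on retests at 20 µM and on dose response follow-up; controls were probe without protein and protein plus probe with vehicle; some compounds called inactive have numbers as strong as hits; many hits fall short of the cut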
CSC inhib: cancer stem cell viability inhibitors, primary screen, luminescence | cancer stem cell-like cells viability | inhibition, % at 7.5 µM | 300,000 tested, 1.1% active | AID 2717, 2010;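 active means mean at 75% or more and at least half the replicates too; inconclusive means mean and replicates disagree; tested in HMLE shEcad cells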;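 further: 0% = median of negative and 100% = median of positive control wells; the first replicate is given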
MT1-MMP act inh: blockers of MT1-MMP proenzyme processing, primary screen, HT1080 RFP-PRO-GFP cells, GFP/RFP fluorescence; GFP/RFP ratio fluorescence, overnight; percent of plate control window, DMSO zero; Matrix metalloproteinase-14 (Homo sapiens), P50281; GFP/RFP ratio change, % at 20 µM; 360,000 tested, 0.061% active; AID 651647, 2012;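 active means GFP/RFP ratio change of at least 30% with cell ATP level not reduced by more than half and red fluorescence within 50% of control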; further: strong numbers were not always called active
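Compound: 20 µM single dose, 1% DMSO / System: HT1080 RFP-PRO-GFP cells / Controls: DMSO and RFP-L50D-GFP cell wells / Read-out basis: GFP/RFP fluorescence ratio / Schedule: overnight compound exposure at 37 °C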
Rce1 inh: yeast Rce1p protease inhibitors, primary screen, biochemical, fluorescence, cell-free homogeneous | CAAX prenyl protease 2 (Saccharomyces cerevisiae (strain ATCC 204508 / S288c)), Q03530 | calls only | yeast membranes, quenched prenylated peptide cleavage fluorescence | 290,000 tested, 0.27% active;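 active means fall in fluorescence gain of 50% or more versus controls, with final raw signal at or below 3038400; inconclusive means same 50% fall but final raw signal above 3038400; inactive means fall in fluorescence gain under 50%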;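 further: plate controls were neutral control wells for no effect and wells lacking membranes for full effect; tested at 10 µM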
Target sequence (Q03530 whole entry, looked up): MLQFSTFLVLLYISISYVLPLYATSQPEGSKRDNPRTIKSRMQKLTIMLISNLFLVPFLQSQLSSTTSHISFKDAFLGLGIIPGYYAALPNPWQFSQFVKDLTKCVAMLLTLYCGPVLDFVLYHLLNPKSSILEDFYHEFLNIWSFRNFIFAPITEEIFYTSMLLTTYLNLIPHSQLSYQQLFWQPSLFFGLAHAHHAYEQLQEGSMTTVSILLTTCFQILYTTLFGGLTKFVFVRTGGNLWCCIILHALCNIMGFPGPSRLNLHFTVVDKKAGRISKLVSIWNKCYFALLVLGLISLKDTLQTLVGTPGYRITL
Env fusion inh: inhibitors of HIV-1 Env-driven cell-cell fusion, primary screen, HeLa-JRFL effector, CEM21 target cells, luciferase. inhibition, % at 12.3 µM. 360,000 tested, 1.1% active;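 active means mean replicate inhibition score of at least 50 and every replicate individually at or above 50; inconclusive means only one of the two criteria met; inactive means mean below 50 and not all replicates reaching 50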;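 further: 0% = plate neutral controls and 100% = maraviroc near 300 nM; one replicate is shown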
Yeast UUG start: modulators of yeast start codon fidelity, primary screen, whole organism, S. cerevisiae, single point, plate reader. S. cerevisiae UUG-firefly luciferase reporter, luminescence/redox ratio. activity score, % at 18.7 µM. 350,000 tested, 0.13% active. AID 602363, 2012;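 active means replicate mean at a twofold rise or more, about +100% in these data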;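 further: firefly luciferase made from a UUG start codon reports start codon fidelity; reporter light over untreated wells divided by growth signal over untreated wells; some hits fall short of that in this replicate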
MT1-MMP act inh RFP: second read-out of MT1-MMP act inh, no call of its own (marks repeat the call); RFP signal change, %; measured here: RFP expression control read;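 0 = vehicle wells; hits needed this value within 50% of zero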
The depositor's hits bear a star; i = inactive; ? = inconclusive; . = not tested or not shown. Hits appear at their usual frequency; any-hit rate near 2.9%.

1: Cc1ccc(/C=C2\CCC3=C2OC(N)=C(C#N)C3c2ccc(C)cc2)cc1 (stereo unspecified)
2: O=S(=O)(c1ccc(Cl)s1)N1CCN(Cc2ccccc2)CC1
3: CN(C)c1ccc(S(=O)(=O)N(C)C)cc1[N+](=O)[O-]
4: CC(C)[C@H](Nc1ncnc2c1oc1ccccc12)C(=O)O
5: COc1ccc(CNC(=O)CN2C(=O)c3ccc([N+](=O)[O-])cc3C2=O)cc1
6: CC(C)Sc1ncnc2c1cnn2-c1ccccc1

entry no.	1	2	3	4	5	6
eIF4H FP inh	?	-6	-16	-10	-4	-10
PABP polyA inh	?	-1	11	1	6	-7
CSC inhib	9	8	1	-16	-7	0
MT1-MMP act inh	-172	0	-1	7	1	1
MT1-MMP act inh RFP	25	-1	3	6	4	2
Rce1 inh	i	i	i	i	i	i
Env fusion inh	.	.	-21	7	-8	-186
Yeast UUG start	-2	8	.	15	-11	-7

7: CC(=O)O[C@H]1CC(=O)OC(C)(C)C2CC(=O)[C@]3(C)C(CC[C@@](C)([C@@H](O[C@@H]4O[C@H](CO)[C@@H](O)[C@H](O)[C@H]4O)c4ccoc4)[C@@]34O[C@@H]4C(=O)O)[C@]21C (stereo partly specified)
8: CCOc1ccc2nc(SCC(=O)Nc3ccc4c(c3)OCO4)sc2c1
9: COc1ccc(Cn2c(=O)[nH]c3cc(C(=O)NCc4ccc5c(c4)OCO5)ccc3c2=O)cc1
10: Cc1ccc(OCC(COCc2ccccc2)NC(C)C)cc1 (stereo unspecified)
11: CC1Cc2cc(-c3csc(N)n3)ccc2O1 (stereo unspecified)
12: CCN(CC(=O)Nc1c(F)cccc1F)C(=O)c1cccc(S(=O)(=O)N2CCc3ccccc3C2)c1

entry no.	7	8	9	10	11	12
eIF4H FP inh	.	-14	.	.	-5	.
PABP polyA inh	.	3	.	.	2	.
CSC inhib	-11	12	0	0	4	-6
MT1-MMP act inh	-1	9	6	3	6	4
MT1-MMP act inh RFP	4	-5	-2	2	-6	-1
Rce1 inh	.	i	i	i	i	i
Env fusion inh	.	-2	-5	24	-31	5
Yeast UUG start	-17	.	15	-7	-12	.

13: CCOC(=O)C1=C(CCc2ccccc2)NC(=O)NC1c1ccc2ccccc2c1 (stereo unspecified)
14: Cc1ccc(NC(=O)COC(=O)c2ccco2)cc1
15: O=C(NCC1CCCO1)c1cnn2c1NC(c1ccccc1)CC2C(F)(F)F (stereo unspecified)
16: Oc1ccc(-c2csc(Nc3ccccn3)n2)cc1O
17: O=C(O)CSc1nnc(-c2ccccc2)c(-c2ccccc2)n1
18: CC1(C)NC(=O)N(CC(O)CN(Cc2ccccc2)Cc2ccccc2)C1=O (stereo unspecified)

entry no.	13	14	15	16	17	18
eIF4H FP inh	0	-1	2	-2	2	-2
PABP polyA inh	-1	-1	-4	-13	10	6
CSC inhib	31	1	8	43	-7	-2
MT1-MMP act inh	3	5	4	-7	-1	8
MT1-MMP act inh RFP	-5	4	1	-17	6	6
Rce1 inh	i	i	i	.	i	i
Env fusion inh	6	-5	.	-110	-10	-27
Yeast UUG start	-10	.	-4	-18	-3	-18

19: Cc1ncc(CN2CCC(n3nccc3NC(=O)c3ccccc3)CC2)s1
20: CCN(CC)S(=O)(=O)c1ccc(N2CCOCC2)c(NC(=O)Cc2ccccc2)c1
21: O=S(=O)(c1ccc(F)c(F)c1)N1CCN(Cc2ccc3c(c2)OCO3)CC1
22: Cc1ccccc1Cn1cc(NC(=O)c2nc3ncccn3n2)cn1
23: Cc1n[nH]c(C)c1S(=O)(=O)N1CCCC(C(=O)NCc2ccc(F)cc2)C1 (stereo unspecified)
24: Cc1ccc(N2C(=O)N(Cc3ccccc3C)c3ccccc3S2(=O)=O)cc1

entry no.	19	20	21	22	23	24
eIF4H FP inh	-5	-4	-7	8	-10	0
PABP polyA inh	-6	4	4	-2	-12	5
CSC inhib	-6	-24	23	6	-16	8
MT1-MMP act inh	1	11	-1	4	3	0
MT1-MMP act inh RFP	3	3	-2	2	2	-9
Rce1 inh	i	i	i	i	i	i
Env fusion inh	.	-20	.	-126	12	-52
Yeast UUG start	2	-14	-16	-17	.	.

Full records as entered above. Values in the order: eIF4H FP inh | PABP polyA inh | CSC inhib | MT1-MMP act inh | MT1-MMP act inh RFP | Rce1 inh | Env fusion inh | Yeast UUG start
Record of O=S(=O)(c1ccc(F)c(F)c1)N1CCN(Cc2ccc3c(c2)OCO3)CC1 = -7 | 4 | 23 | -1 | -2 | i | . | -16
Record of Cc1n[nH]c(C)c1S(=O)(=O)N1CCCC(C(=O)NCc2ccc(F)cc2)C1 (stereo unspecified) = -10 | -12 | -16 | 3 | 2 | i | 12 | .
Record of Cc1ccc(N2C(=O)N(Cc3ccccc3C)c3ccccc3S2(=O)=O)cc1 = 0 | 5 | 8 | 0 | -9 | i | -52 | .

Later entries:
25: O=C1c2ccc([N+](=O)[O-])cc2C(=O)N1c1ccc(Cl)cn1
26: CC(C)(C)OC(=O)N1CCN(C(=O)c2[nH]cnc2C(=O)NCC(=O)OCc2ccccc2)CC1
27: COc1ccc(NC(=O)CSc2ccc3nnc(-c4cccnc4)n3n2)c(OC)c1
28: Cc1cc(C(=O)Nc2ccccc2N2CCOCC2)no1
29: CCOc1ccc(-c2nc(S(=O)(=O)c3ccccc3)c(NC)o2)cc1
30: O=S(=O)(c1ccc(-c2csc(-c3cccnc3)n2)cc1)N1CCCC1

entry no.	25	26	27	28	29	30
eIF4H FP inh	-7	-3	2	.	0	-14
PABP polyA inh	2	-3	-8	.	11	-5
CSC inhib	-13	-15	11	.	-8	14
MT1-MMP act inh	-3	2	7	-4	-1	-1
MT1-MMP act inh RFP	-3	6	4	-1	3	-3
Rce1 inh	i	i	i	.	i	i
Env fusion inh	0	-8	-12	33	6	-27
Yeast UUG start	.	-10	-14	-7	-6	-10

31: CCCS(=O)(=O)NC(=O)C1(C)CCN(C(=O)c2snnc2C)C1 (stereo unspecified)
32: NC(=S)Nc1cc2ccccc2c2ccccc12
33: CCOc1cc(CNC2CCCC2)c(Cl)cc1OCC(=O)Nc1ccccc1
34: Cc1cccn2c(=O)c3cc(C(=O)NCc4ccco4)c(=N)n(C4CCCCC4)c3nc12
35: CC(C)C(=O)Nc1cccc(NC(=S)NC(=O)c2ccc([N+](=O)[O-])cc2)c1
36: O=C(c1ccccc1)c1cc(Cl)ccc1N1C(=O)C=CC1=O

entry no.	31	32	33	34	35	36
eIF4H FP inh	.	1	-5	?	-10	16
PABP polyA inh	.	9	4	?	5	?
CSC inhib	.	-6	.	.	-11	.
MT1-MMP act inh	1	-2	3	-1	-8	-3
MT1-MMP act inh RFP	2	0	2	-8	-2	2
Rce1 inh	.	i	i	i	i	.
Env fusion inh	i	i	-108	.	2	-18
Yeast UUG start	-21	-29	.	12	-10	-24

37: C/C(=C\C(=O)c1ccccc1)NNc1nc2ccccc2s1
38: CCOC(=O)Cc1nc2ccccc2n(CC#N)c1=O
39: COc1ccc(/C=N/NC(=O)c2cccc([N+](=O)[O-])c2)cc1OC(=O)c1ccccc1
40: O=C(NC1CCOc2ccccc21)C1CCCC1 (stereo unspecified)
41: CC(=O)Nc1ccc(/C=C(\C#N)C(=O)NCc2ccccc2)cc1
42: COc1ccc(C(N)=O)c(OCC(=O)Nc2cc(C)on2)c1

entry no.	37	38	39	40	41	42
eIF4H FP inh	0	0	-1	1	4	.
PABP polyA inh	9	-3	-2	-7	3	.
CSC inhib	15	.	3	-1	0	7
MT1-MMP act inh	-4	-6	1	-2	3	0
MT1-MMP act inh RFP	2	5	-9	0	5	4
Rce1 inh	.	i	i	i	i	.
Env fusion inh	-163	8	-201	23	15	.
Yeast UUG start	-6	-17	.	-24	-6	-1

43: CN(C)c1ncnc2c1ncn2[C@H]1CN(Cc2ccc(-c3ccccc3)cc2)C[C@@H](CO)O1
44: Cc1cc(C)n(CC(=O)NNC(=O)COc2ccc(F)cc2Br)n1
45: COc1ccc(-c2n[nH]c(C)c2-c2cnn(-c3ccccc3)c2)c(O)c1C
46: CCCN1CCN(CCCNC(=O)c2ccc3c(c2)NC(=O)c2ccccc2S3)CC1
47: CCCC1(c2ccccc2)NC(=O)N(CC(=O)Nc2cc(OC)cc(OC)c2)C1=O (stereo unspecified)
48: CC(C)(C)c1ccc(C(=O)NNC(=O)c2cccc(Br)c2)cc1

entry no.	43	44	45	46	47	48
eIF4H FP inh	.	.	-5	3	-3	-1
PABP polyA inh	.	.	13	1	8	0
CSC inhib	.	-4	66	-8	.	-12
MT1-MMP act inh	-2	-2	-7	-2	3	0
MT1-MMP act inh RFP	-6	3	3	-1	1	-6
Rce1 inh	.	.	i	i	i	i
Env fusion inh	-6	.	-129	1	1	-75
Yeast UUG start	-6	-44	-24	12	0	.

49: O=C(NCCc1c[nH]c2ccccc12)C(=O)NCC1OCCCN1S(=O)(=O)c1ccccc1 (stereo unspecified)
50: Cc1ccccc1NC(=O)COC(=O)CC1CCCC1
51: COC(=O)C(C(=O)Nc1ncccn1)C1CCCCCC1 (stereo unspecified)
52: CCc1ccc(/C=N/N2CCN(c3ccccn3)CC2)cc1
53: CCOC(=O)C1=C(C)Nc2nnnn2C1c1cccc(OC)c1OC (stereo unspecified)
54: Nc1ccc2oc(=O)c(-c3ccccc3)cc2c1
55: Cc1ccc(Cn2nc(C)c(NC(=O)c3nn(C)cc3Cl)c2C)cc1
56: Cc1ccc(N(C(=O)CNC(=O)c2ccco2)C(C(=O)NC2CCCCC2)c2cccnc2)cc1F (stereo unspecified)
57: CCOC(=O)N1CCN(C(=O)C2CCCN(S(=O)(=O)c3cccnc3)C2)CC1 (stereo unspecified)

entry no.	49	50	51	52	53	54	55	56	57
eIF4H FP inh	-1	.	-4	19	.	-5	5	-5	4
PABP polyA inh	-2	.	-4	6	.	-11	6	5	2
CSC inhib	-19	.	7	-9	-6	-2	-13	.	-9
MT1-MMP act inh	2	4	-4	6	4	2	3	2	-1
MT1-MMP act inh RFP	-5	5	2	0	3	4	-10	4	1
Rce1 inh	i	.	i	i	i	i	i	i	i
Env fusion inh	4	-10	.	-9	0	-26	-278	5	1
Yeast UUG start	.	-10	-8	.	-18	-14	-2	-37	-9
